gsp ag: activates gsp, the McCune-Albright syndrome mutation; gsp mutant cells, cAMP HTRF, 30 min; control for the full effect not named in the record; Potency, µM (titrated, usually from 76.9 µM), for inactives: top-dose activation (cAMP increase), actives largely listed as activators; 0.13% of 340,000 active; active = well fitted activation curve with a large enough effect; inconclusive = small, poorly fitted or top-dose-only effect, or another doubt; inactive = no such curve, though single readings can be large or run the other way; cell line not stated here;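 also: phosphodiesterase inhibitor Ro 20-1724 added with compounds to block cAMP breakdown; potency is read from the fitted curve at half-maximal effect; nearly all actives have a fitted effect of over 60% in size; about a fifth of the inactives were tested at one dose only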
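Cells stably selected in G418 were plated at 2000/well, grown 16-24 hr, then given compounds in DMSO with the PDE inhibitor […] (300 uM solution added) for 30 min at 37C; cAMP was read by HTRF.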
Menin MLL FP FL: displaces fluorescein MLL peptide from human menin; 290,000 tested, under 10 active; Fluorescence polarization, fluorescein-MLL peptide displacement from menin; FP activity change, % at 61.4 µM; inconclusive = falling polarisation curve, or a change in total fluorescence; inactive = total fluorescence flat and polarisation flat or rising; no compound was filed as active; the % refers to the polarisation; negative = inhibition;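 also: % of control where 0% means no effect; inhibitors lower the polarisation; unlabelled MLL peptide was the positive control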
gsp antag: gsp mutant antagonism | gsp-mutant cells, cAMP HTRF, 30 min; control for the full effect not named in the record | Potency, µM (highest dose often 76.9 µM), for the others: top-dose activity change, negative = inhibition, actives largely listed as inhibitors | 0.4% of 340,000 active; active = falling curve of any shape with a large fitted effect; inconclusive = falling curve, mostly with a smaller effect; inactive = flat or rising curve; cell line not stated here;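 also: intracellular cAMP measured with PDE inhibitor Ro 20-1724 present during compound exposure; potency is read from the fitted curve at half-maximal effect; % is scaled to controls: 0 for no effect and ±100 for the full control effect; nearly all actives have a fitted effect of over 65% in size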
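Cells, 2000/well, grown 16–24 h in DMEM 10% FBS with 0.5 mg/ml G418, then compounds plus […] (300 uM addition stock), 30 min at 37C. cAMP read by HTRF (cAMP-d2 and anti-cAMP antibody-K in lysis buffer) after 30 min RT.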
TRPV1 potentiator: potentiators of human vanilloid receptor 1 (TRPV1) | Q8NER1 | 0.02% of 320,000 active | TRPV1-expressing cells, Fluo-8 calcium influx, capsaicin EC20 potentiation; host cell line not named in the record; control for the full effect not named in the record | potentiation, % at 8.33 µM | AID 540277; active means potentiation above 80%; inconclusive means 30% to 80%; inactive means below 30%; also: 0% is about no effect
Target sequence (Q8NER1 whole entry, looked up): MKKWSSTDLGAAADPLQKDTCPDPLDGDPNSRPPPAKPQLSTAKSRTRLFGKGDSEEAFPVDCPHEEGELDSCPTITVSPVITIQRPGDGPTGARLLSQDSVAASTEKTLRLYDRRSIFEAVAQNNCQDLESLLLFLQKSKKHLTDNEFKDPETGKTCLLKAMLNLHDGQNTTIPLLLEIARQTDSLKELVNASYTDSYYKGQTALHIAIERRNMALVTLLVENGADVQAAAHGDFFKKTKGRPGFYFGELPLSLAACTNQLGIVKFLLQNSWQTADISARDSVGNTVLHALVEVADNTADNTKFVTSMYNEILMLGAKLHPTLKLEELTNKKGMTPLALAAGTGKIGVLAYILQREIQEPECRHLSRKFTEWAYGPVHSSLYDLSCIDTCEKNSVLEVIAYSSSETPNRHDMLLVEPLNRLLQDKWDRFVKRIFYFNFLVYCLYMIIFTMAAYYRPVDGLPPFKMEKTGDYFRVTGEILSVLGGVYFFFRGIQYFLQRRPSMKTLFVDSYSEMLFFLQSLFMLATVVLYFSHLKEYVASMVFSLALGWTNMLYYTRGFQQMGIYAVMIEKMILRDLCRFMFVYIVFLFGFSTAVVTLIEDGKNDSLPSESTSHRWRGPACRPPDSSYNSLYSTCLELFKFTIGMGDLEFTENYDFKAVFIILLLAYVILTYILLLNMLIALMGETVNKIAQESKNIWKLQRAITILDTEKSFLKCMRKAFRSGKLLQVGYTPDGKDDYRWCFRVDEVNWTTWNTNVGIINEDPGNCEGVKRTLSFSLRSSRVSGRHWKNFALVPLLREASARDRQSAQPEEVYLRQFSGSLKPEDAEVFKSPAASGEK
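Fluo-8 calcium influx in TRPV1-expressing cells, kinetic read (ex 480/em 520 nm). Compound added and read 3 min for agonist activity, followed by capsaicin at EC20 final and 2 min further read for enhancement.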
ClpP mod: qHTS Assay for Activators of ClpP | ATP-dependent Clp protease proteolytic subunit (Bacillus subtilis (strain 168)), P80244 | purified B. subtilis ClpP, FRET peptide cleavage, 20 min | Potency, µM (top dose mostly 57.5 µM), without a hit: at the top dose activity change, negative = active | 1.9% of 340,000 active; active = well fitted falling curve with a large enough effect; inconclusive = small, poorly fitted or top-dose-only effect; inactive = no such curve, though single readings can be large or run the other way; also: potency is read from the fitted curve at half-maximal effect; the source files actives as falling curves though it sought activators and does not explain the sign; nearly all actives have a fitted effect of over 65% in size; many hits overshoot -100%
Target sequence (P80244 whole entry, looked up): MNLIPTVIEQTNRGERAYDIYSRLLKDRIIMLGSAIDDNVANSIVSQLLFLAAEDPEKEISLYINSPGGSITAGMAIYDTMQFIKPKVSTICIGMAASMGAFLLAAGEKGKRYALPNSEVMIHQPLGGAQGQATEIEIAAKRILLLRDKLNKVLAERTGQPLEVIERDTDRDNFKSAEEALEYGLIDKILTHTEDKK
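FRET quenching reversal measured ClpP activation: 10 microg/mL B. subtilis ClpP at pH 8 with the FRET-FV decapeptide, read at 430 nm after 320 nm excitation. The 20-min minus 0-min signal was scaled between DMSO/no-enzyme wells and ADEP (5.8 microM final).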
TRPML1 blocker: inhibitors of human TRPML1 channel. Q9GZU1. TRPML1-inducible cells, Ca2+ dye fluorescence, FDSS; active compounds read low; inhibition of EC80 agonist-evoked calcium signal. activity change, negative = inhibition, % (no concentration beside the values). 0.02% of 390,000 active. AID 624415; in the data active means activity change below about -50%; inconclusive means about -30% to -50%; inactive means above about -30%;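 also: stimulus is agonist 54-4 at its EC80 concentration; % is scaled to controls: 0 for no effect and ±100 for the full control effect; compound concentration not given in the record; the text of the record puts the active cut at -80%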
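TRPML1-DL cells, Tet-induced overnight (~16 h, 37 °C) at 1,500 cells/well, were loaded with Ca8 no-wash dye plus quencher for 45-90 min at room temperature. Compounds were pinned during FDSS kinetic reading; agonist 54-4 at EC80 (4 uM final) then added.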
Sfp inh: Sfp phosphopantetheinyl transferase inhibition; Q9F4F7; Biochemical Sfp PPTase activity, qHTS; Potency, µM, for inactives: max response, negative = inhibition, actives largely listed as inhibitors; 3.5% of 310,000 active; AID 1490; active = well fitted inhibition curve with a large enough effect; inconclusive = small, poorly fitted or top-dose-only effect, or another doubt; inactive = no such curve, though single readings can be large or run the other way;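 also: the enzyme is Sfp with the accession as filed and its product quenches rhodamine fluorescence; potency is read from the fitted curve at half-maximal effect; 0% = enzyme reaction without inhibitor and -100% = no enzyme wells; top concentration of the series not given in the record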
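Step 1, compound plus 15 nM Sfp-PPTase, 15 min, room temperature. Step 2, add rhodamine-CoA (5 uM) and BHQ-2-YbbR (12.5 uM). Step 3, read 525/598 nm fluorescence at 0 and 30 min.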
* marks the source's active call; other numbers are inactive results; ? = inconclusive; · = not tested or not shown; & = joins results of further samples; [ ] = dose if it differs, or a comment. The order is random. About 4.9% of those tested had a hit in this group.

SMILES	gsp ag	Menin MLL FP FL	gsp antag	TRPV1 potentiator	ClpP mod	TRPML1 blocker	Sfp inh
Cc1ncc(C(O)c2ccc(N(C)C)cc2)n1Cc1ccccc1 (stereo not given)	-6%	·	·	·	-2.9%	4	·
CCN(CC(=O)Nc1c(F)cccc1F)C(=O)CCc1nc2cc(S(=O)(=O)N(C)C)ccc2n1CC	-66%[inhibitor]	·	7%	-1	-4.3%	-15	3%
COc1ccc(CC(=O)N/N=C/c2cccnc2)cc1OC	-33%[inhibitor]	·	11%	-5	-2.0%	11	24%
CC(C)CNC(=O)c1cccc(Cn2cc(Cl)cn2)c1	7%	0.2	5%	-5	-0.3%	-1	5%
O=C(COC(=O)c1nc(Cl)ccc1Cl)Nc1ccc2c(c1)OCO2	4%[15.4 µM]	-4.3	1%	0	·	8	20%
O=C(O)CCN1C(=O)c2ccncc2C1=O	6%	4.4	15%	-1	-3.2%	61	8%
CCC(C)c1ccccc1NC(=O)COC(=O)c1ccc2c(c1)S(=O)(=O)c1ccccc1C2=O (stereo not given)	-8%[15.4 µM]	1.1	-12%	-8	22µM*	-2	13%
CC1CC(C)CN(S(=O)(=O)N2CCCC(C(=O)NC3CCCCC3C)C2)C1 (stereo not given)	?	·	8%	-21	-1.4%	-15	9%
Cc1ccc2c(CN(C)Cc3ccccc3)cc(=O)oc2c1C	10%[15.4 µM]	0.8	-25%	19	-1.3%	38	-13%
COc1ccc(NC(=O)C2C(=O)N(CCO)C3(C)CC2c2ccccc2O3)cc1 (stereo not given)	-21%	-4.0	-12%	15	1.5%	14	10%
CCc1ccc(CN2CCC(n3nccc3NC(=O)C3CCCC3)CC2)cc1	-45%[inhibitor]	-0.6	10%	-4	28µM*	-7	1%
CN1c2ccccc2C(C)(C)C12C=Cc1cc(O)ccc1O2 (stereo not given)	-39%[inhibitor]	?	-24%	5	-1.0%	1	-17%
CCOc1cc(/C=N/Nc2nc3ccccc3[nH]2)cc(Br)c1OCC(=O)N(C)C	8%[15.4 µM]	-0.2	-26%	8	-0.4%	-15	-66%
CC(=O)NS(=O)(=O)c1ccc(NC(=O)CCc2ccccc2)cc1	-39%[inhibitor]	-3.2	13%	9	-1.1%	10	-17%
C[C@@H]1CN([C@H](C)CO)C(=O)Cc2cc(NS(=O)(=O)c3ccc(F)cc3)ccc2O[C@H]1CN(C)Cc1ccc(C(=O)O)cc1	20%	·	-4%	·	-0.8%	11	·
Cc1c(C(C)(C)C)c(C=S)n2ccccc12	5%	-0.3	-7%	-13	2.0%	-2	50µM*
CCOc1ccc(C(=O)COC(=O)c2ccc(-n3cnnn3)cc2)cc1	?	·	25%	11	-2.3%	-7	9%
Cc1ccc(NS(=O)(=O)c2ccc(NC(=O)[C@@H]3CCCC[C@@H]3C(=O)O)cc2)c(C)c1	-21%	-0.7	5%	-9	-2.4%	21	-10%
Cc1ccc(Cl)c(OCCCCN2CCC(C)CC2)c1	33%	·	14%	·	0.5%	-12	·
CCCCCOc1ccccc1C(=O)NCC(=O)O	-29%	0.2	6%	-4	-1.2%	-7	18%
O=C(Nc1cccc([N+](=O)[O-])c1)c1ccncc1	-25%	0.0	15%	-21	1.3%	13	14%
COc1ccccc1CNC(=O)C1CC(c2ccccc2C(F)(F)F)=NO1 (stereo not given)	·	4.4	3%	?	-1.6%	-10	19%
CC(=O)NC(CCS(C)(=O)=O)C(=O)Nc1ccc(Oc2ccccc2)cc1 (stereo not given)	-29%	1.7	-7%	2	-3.4%	-12	14%
Cc1ccc(OCC(=O)N2CCCC(CO)(CCOc3ccccc3)C2)cc1 (stereo not given)	2%	·	1%	13	-1.4%	22	9%
C=CCc1ccc(OCCOCCOc2cccc3ccc(C)nc23)c(OC)c1	-1%	1.6	?	?	-8.1%	2	?
COCCN(Cc1nc2ccccc2c(=O)[nH]1)C(=O)COc1c(C)cc(Cl)cc1C	17%	·	-21%	4	1.1%	5	·
COc1ccc(OCCN(C)Cc2ccccc2)cc1	?	4.6	13%	?	-0.3%	-6	1%
Cc1cc(Br)c(NC(=O)COC(=O)c2ccc[n+]([O-])c2)c(Br)c1	-46%[inhibitor]	·	3%	·	-6.5%	21	·
COc1ccc(C(=O)N(CCc2ccccc2)Cc2cccs2)c(OC)c1	?	?	?	-8	·	-8	10%
O=C(Nc1cscc1S(=O)(=O)c1ccc(Cl)cc1)c1ccccc1Cl	0%	4.7	-4%	10	-1.0%	37	-2%
O=C(O)C1CSC(c2ccncc2)N1 (stereo not given)	?	-0.3	1%	18	-7.1%	3	-70%
CCN(CC)S(=O)(=O)N1CCC(C(=O)NCc2ccco2)CC1	23%	0.5	1%	1	·	12	-12%
Cc1cc(C)cc(OCCNC(=O)C(C)N2C(=O)c3ccccc3C2=O)c1 (stereo not given)	?	0.7	-4%	6	·	1	13%
CCCCN(CCCC)C(=O)CSc1nnc2n(C)c(=O)c3c4c(sc3n12)CCCC4	-6%	-2.3	-6%	-1	-0.4%	12	8%
O=C1c2ccccc2C(=O)c2c1ccc(C(=O)N1CCCCC1)c2NCCO	24%	-3.0	-2%	-3	-0.5%	-5	13%
CCOC(=O)c1cnc(SCc2cccc(C)c2)nc1N	-25%	0.1	-3%	9	-1.9%	-3	?
O=S(=O)(Nc1ccc2c(c1)OCCO2)c1ccc(F)c(F)c1	-15%[15.4 µM]	?	-11%	-1	·	3	19%
COc1ccc(-c2cc(C(F)(F)F)nc(N3CCN(C)CC3)n2)cc1OC	-15%	3.7	14%	-17	-0.3%	-4	8%
COc1ccc(-c2ccc(SCC(=O)c3ccccc3)nn2)cc1OC	2%	1.0	-19%	-8	·	-2	-4%
N=c1n(CCN2CCCCC2)c2ccccc2n1CC(O)c1cccc(Br)c1 (stereo not given)	-13%	-2.8	11%	3	-19%	1	-5%
Cc1noc(C)c1C(=O)NCc1ccccc1Br	9%	-4.9	14%	-7	·	7	12%
COc1ccc(/C=N\NC(=O)c2ccc([N+](=O)[O-])cc2)cc1COc1c(F)c(F)cc(F)c1F	?	·	-17%	-2	-2.4%	-6	-21%
COc1ccc(-c2[nH]ncc2CN2CCCC2c2nonc2C)c(F)c1 (stereo not given)	-1%[15.4 µM]	-6.0	7%	-11	0.2%	-12	22%
C[C@H](OC(=O)c1[nH]cnc1C(=O)N1CCN(C(=O)OC(C)(C)C)CC1)c1ccccc1	·	·	2%	·	0.5%	-8	·
CCOC(=O)C1CCCN(C(=O)Cn2nc(C)n3c(cc4c(OC)cccc43)c2=O)C1 (stereo not given)	35%	·	-2%	10	3.6%	35&19	12%
CCCn1nc(C(=O)Nc2cccc(S(=O)(=O)N3CCOCC3)c2)c2ccccc2c1=O	-76%[inhibitor]	·	·	·	-6.7%	4	·
O=C(COC(=O)CCC1CCCC1)Nc1ccccc1Br	-2%	·	8%	6	1.1%	-1	·
Cc1nn(C)c(C)c1S(=O)(=O)N(CC(=O)NCc1ccco1)c1ccc(C(C)C)cc1	·	-1.3	·	8	·	·	21%
CN1C[C@@H]2[C@@H]3C(=O)N(C)C(=O)[C@@H]3[C@](C)(C1=O)N2C(=O)c1ccc(C(C)(C)C)cc1	18%	·	1%	·	1.5%	6	·
Cc1noc(C)c1S(=O)(=O)Nc1ccc(C(=O)N2CCN(c3ccc(F)cc3)CC2)cc1	28%	-2.1	-22%	0	-1.4%	12	18%
C=CC[C@@H](CC(=O)N[C@H](CO)Cc1ccccc1)C(=O)NC[C@@H](OC(=O)[C@@H](CC=C)Cc1ccc(F)cc1)c1ccccc1	-2%	·	-3%	·	-0.4%	-4	·
Cc1oc2c(C)c3oc(=O)c(CC(=O)N[C@@H](CCCNC(N)=O)C(=O)O)c(C)c3cc2c1C	24%	1.6	8%	-18	-29%	21	5%
Cc1ccc(S(=O)(=O)N2CCOC23CCN(C(=O)C(=O)NCc2ccccc2)CC3)cc1	1%[15.4 µM]	·	6%	-1	1.2%	5	·
CC(=O)c1ccc(N2CCN(C(=O)CN3C(=O)NC4(CCCCC4)C3=O)CC2)c(F)c1	4%	·	5%	-7	-0.7%	-9	·
CCCCC(=O)Nc1nnc(S(=O)(=O)N(CC)c2ccccc2)s1	-1%	1.2	5%	12	-1.3%	-2	23%
CCN(C[C@H]1N[C@@](Cc2ccccc2)(C(=O)OC)[C@H]2C(=O)N(C)C(=O)[C@@H]12)S(=O)(=O)c1ccc(C(C)(C)C)cc1	·	·	-8%	·	-0.7%	15	·
CC(C)Cc1ccc(C(=O)NCc2ccc3c(c2)OCO3)o1	?	2.0	5%	-8	-3.8%	-10	5%
CCN1CCN(CCCNC(=O)CCC(=O)N2CCOc3ccccc32)CC1	-35%[inhibitor]	-2.3	-3%	3	-1.2%	-6	25%
COC(=O)C1=C(C)N(CCc2c[nH]c3ccccc23)C(=O)/C1=C\N(C)C	15%	7.5	-3%	4	-3.5%	4	18µM*
COc1cc(/C=N/NC(=O)CC2(C)OCCCO2)ccc1OCc1ccc(Cl)cc1Cl	5%[15.4 µM]	0.7	-18%	6	-2.6%	23	-8%

Carrying on:
SMILES	gsp ag	Menin MLL FP FL	gsp antag	TRPV1 potentiator	ClpP mod	TRPML1 blocker	Sfp inh
Cc1cc(C(=O)OCC(=O)NC(=O)NC(C)(C)C)c(C)o1	10%	0.3	7%	-2	0.3%	10	-18%
COc1ccccc1C(=O)NNC(=O)c1ccc(NS(=O)(=O)c2cccs2)cc1	-31%[inhibitor]	·	-24%	3	0.8%	8	17%
Cc1c(Cc2ccccc2)c(=O)oc2cc(OCC(=O)NCC(O)c3ccccc3)ccc12 (stereo not given)	-14%	2.5	-6%	11	4.6%	-9	4%
Cc1cccc(OCC(=O)Nc2nnc(-c3ccco3)s2)c1	7%[15.4 µM]	2.8	8%	16	·	5	-9%
CN1CCN(S(=O)(=O)c2ccc(C(=O)NC3CCCCC3)cc2)CC1	14%	·	4%	·	·	12	·
